Source: PubChem BioAssay (National Center for Advancing Translational Sciences (NCATS))
VDR inhibitor – Inhibitors of the vitamin D receptor (VDR): qHTS. AID 504847, 2011. VDR-SRC2-3 peptide fluorescence polarization, 2 h. Potency, µM, without a hit: max response, negative = inhibition, most hits filed as inhibitors. 0.93% of 400,000 active; active = well fitted inhibition curve with a large enough effect; inconclusive = small, poorly fitted or top-dose-only effect, or another doubt; inactive = no such curve, though single readings can be large or run the other way; note: series mostly up to about 120 µM
Target sequence (P11473 whole entry, looked up): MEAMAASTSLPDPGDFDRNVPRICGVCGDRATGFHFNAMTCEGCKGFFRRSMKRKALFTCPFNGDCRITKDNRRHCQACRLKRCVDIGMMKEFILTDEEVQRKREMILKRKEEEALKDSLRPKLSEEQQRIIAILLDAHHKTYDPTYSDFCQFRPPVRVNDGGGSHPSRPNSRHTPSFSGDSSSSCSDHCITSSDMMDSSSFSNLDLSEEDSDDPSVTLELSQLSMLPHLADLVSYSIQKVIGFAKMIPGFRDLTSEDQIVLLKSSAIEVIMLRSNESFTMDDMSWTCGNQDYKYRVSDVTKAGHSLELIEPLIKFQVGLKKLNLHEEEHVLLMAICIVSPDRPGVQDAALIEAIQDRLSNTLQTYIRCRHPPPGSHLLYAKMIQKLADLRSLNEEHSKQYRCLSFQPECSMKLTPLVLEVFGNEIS
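Compounds are added to VDR with labelled SRC2-3 coactivator peptide and held 2 h at room temperature. Inhibition of the VDR–peptide interaction is then read as a change in fluorescence polarization.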
The depositor's hits bear a star; u = inconclusive; & = joins results of further samples; [ ] = remark or other dose. % is set by controls: 0 for no effect and ±100 for the full control effect; potency is the fitted concentration of half-maximal effect. Not all compounds are listed; rates above refer to the full screens.

Structure | VDR inhibitor
COc1cc(C(=O)OC2CSCC2NC(=O)c2ccccc2)cc(OC)c1OC (stereo unspecified) | 6%
Cc1ccc(NC(=O)c2cc(-c3ccccc3)nn2-c2ccccc2)cc1 | 7%
N=c1c(S(=O)(=O)c2ccccc2)cc2c(=O)n3ccccc3nc2n1C1CCCCC1 | -26%
O=C(CN1CCN(S(=O)(=O)c2ccccc2)CC1)N1CCCCC1 | u
COC(=O)C1CCN(CC(=O)Nc2ccc3c(c2)OCCO3)CC1 | 4%
Cc1ccc(/C=C/c2nnc(-c3cccs3)o2)cc1 | 13%
C[C@]12c3[nH]c4ccc(Cl)cc4c3CCN1C(=O)[C@@H](CC(=O)NCC13CC4CC(CC(C4)C1)C3)C[C@@H]2C(=O)N1CCCCC1 | 2%
COc1ccc(/C=N\NC(=O)c2cc(OCC(F)(F)F)ccc2OCC(F)(F)F)cc1 | -6%
CSc1ccccc1C(=O)N(CC1CCCO1)c1c(N)n(Cc2ccccc2)c(=O)[nH]c1=O (stereo unspecified) | 1%
COc1cccc(OC)c1C(=O)N1CCN(S(=O)(=O)c2ccccc2)CC1 | 4%
CCOC(=O)c1c(S(=O)(=O)N2CCC(C(=O)N3CCN(c4cccc(C)c4C)CC3)CC2)c(C)n(C)c1C | 1%
Cc1cc(N2CC34C=CC(O3)C(C(=O)O)C4C2=O)no1 (stereo unspecified) | -2%
CN(C)/C=C/C(=O)c1ccccc1F | -9%
CCC1COCCS(=O)(=O)N1Cc1ccc(C)cc1 (stereo unspecified) | -15%
CC(C)CCN1C(=O)N(c2ccccc2)C(=O)C1CC(=O)Nc1ccc(Cl)cc1 (stereo unspecified) | 3%
COc1ccc(CN2CCN(C(=O)CC(C)C)CC2)c(OC)c1OC | -17%
CCOC(=O)c1cccc(NC(=O)CC2C(=O)N(c3ccc(Cl)cc3)C(=O)N2C2CCCC2)c1 (stereo unspecified) | 2%
CCOC(=O)C1CCN(S(=O)(=O)c2ccc(OC)c(Cl)c2Cl)CC1 | -8%
CCCNC(=O)Cn1nc(C(F)(F)F)cc1C | -4%
O=C(O)C(Sc1ccncn1)c1ccccc1 (stereo unspecified) | -10%
Cc1ccccc1-n1c(SCC(=O)N/N=C/c2sccc2C)nc2ccccc2c1=O | -7%
O=C(c1ccccc1Cc1ccccc1)N1CCN(S(=O)(=O)c2ccccc2)CC1 | -5%
Nc1nc2[nH]c(=O)c(=O)[nH]c2c(=O)[nH]1 | 9%
COc1ccccc1NC(C)=O | -3%
Cc1ccc(C(C(=O)NCc2ccccc2)N(Cc2cccs2)C(=O)c2ccc3c(c2)OCCO3)cc1 (stereo unspecified) | 23%

The listing continues:
Structure | VDR inhibitor
COc1ccc(/C=C/C(=O)c2cc(Br)ccc2O)cc1OC | u
CCOC(=O)c1c(CN2CCN(c3ccccc3)CC2)oc2ccc(O)cc12 | 1%
CCOc1cc2c(cc1O)C(=NO)CC1C2CCC2(C)C(O)CCC12 (stereo unspecified) | 10%
COc1cc(NCC(=O)Nc2cccc(S(=O)(=O)N3CCCCC3)c2)cc(OC)c1OC | 0%
CCOC(=O)c1cc2c(=O)n3ccccc3nc2n(Cc2ccco2)c1=NC(=O)c1cccnc1 | u
Cc1nc(NC(=O)c2ccc(F)cc2)sc1C(=O)Nc1ccc2c(c1)CCC2 | -9%
N#C/C(=C\c1ccncc1)c1ccccn1 | -1%
Cc1cc(/C([O-])=C(/C(=S)Nc2ccc(F)cc2)[n+]2ccccc2)c(C)n1-c1ccc(F)cc1 | -15%
Cc1c(C(=O)Nc2cc(F)ccc2F)sc2nc3n(c(=O)c12)CCCCC3 | 20%
CN(C)c1ccnc2sc3c(=O)n(Cc4ccccc4)cnc3c12 | 0%
Cc1ccnc(NS(=O)(=O)Cc2ccccc2)c1 | -4%
COc1ccccc1OCC(=O)OCC(=O)Nc1sccc1C(N)=O | -9%
Cc1ccc(/C=c2/sc3nnc(-c4ccccc4Cl)n3c2=O)o1 | -10%
COC(=O)c1ccc(OC(=O)N2CCOCC2)cc1 | 2%
CCc1ccc(OCC(=O)N2CCc3ccccc32)cc1 | -9%
Cn1cccc1CC(=O)N/N=C/c1ccc(Cl)c([N+](=O)[O-])c1 | 0%
COCCNC(=S)Nc1ccc([N+](=O)[O-])cc1C | -1%
COc1ccc(OC)c(CNC(=O)c2cc3c(Cl)nc4ccccc4c3s2)c1 | -17%
CCOc1ccc(-n2cc(C(=O)Nc3ccccc3OCC)c3cc(OC)c(OC)cc3c2=O)cc1 | -3%
O=C(c1ccc2c(c1)OCO2)N1CCN(c2ncccn2)CC1 | 1%
Cc1cccc(C)c1NC(=O)C(NC(=O)c1ccccn1)c1ccccc1[N+](=O)[O-] (stereo unspecified) | -13%
CN1CCN(C(=O)c2cnn(-c3ccccc3)c2NC(=O)c2ccccc2Br)CC1 | 0%
CC(C)[C@H](NC(=O)c1ccco1)C(=O)OCC(=O)Nc1ccc(Cl)c(S(=O)(=O)N(C)C)c1 | 10%
Cc1cccc(C(=O)N2CCC(=O)N([C@H](COCc3ccccc3)Cc3ccccc3)CC2)c1 | u
Cc1cnc(C(=O)N2CCCC(N3CCN(c4ccccc4F)CC3)C2)cn1 (stereo unspecified) | 10%

Four compounds picked at random from the list so far, as already listed:
Structure | VDR inhibitor
COc1ccc(OC)c(CNC(=O)c2cc3c(Cl)nc4ccccc4c3s2)c1 | -17%
Cn1cccc1CC(=O)N/N=C/c1ccc(Cl)c([N+](=O)[O-])c1 | 0%
Cc1ccnc(NS(=O)(=O)Cc2ccccc2)c1 | -4%
COc1ccccc1OCC(=O)OCC(=O)Nc1sccc1C(N)=O | -9%

(list continues)
Structure | VDR inhibitor
COc1cc(SC)ccc1C(=O)Nc1ccc2ncccc2c1 | -14%
Nc1c(C(=O)c2ccccc2)sc2c1c(=O)[nH]c(=O)n2-c1ccccc1 | -21%
CC1CN(CC(=O)c2c(N)n(Cc3ccccc3)c(=O)n(C)c2=O)CC(C)O1 (stereo unspecified) | -2%
COCCNC(=S)N(CCc1c(C)[nH]c2ccc(Cl)cc12)Cc1cccnc1 | 6%
O=C(Cn1nnc2ccccc2c1=O)NCCc1ccccc1 | -13%
O=C(NNC(=O)c1ccc([N+](=O)[O-])cc1)NC1CCCCC1 | -14%
COc1ccc(Cl)cc1NC(=O)c1nn(-c2ccc(C)cc2)c(=O)n(C)c1=O | 23%
O=C(Nc1ccc(F)cc1)N1CCN(C(=O)c2nsc3ccccc23)CC1 | -5%
CN(Cc1cnn(C)c1)S(=O)(=O)c1cccc([N+](=O)[O-])c1 | -11%
COc1ccccc1N1CCN(C(=O)CSc2nnc3c4ccccc4n(CC(=O)O)c3n2)CC1 | 10%
O=C(Nc1ccc(C(=O)O)cc1)/C(=C\C=C\c1ccccc1)NC(=O)c1ccccc1Cl | -14%
N#CCc1nnc2n1-c1ccccc1CCC2 | 2%
c1ccc(Nc2nnc(-c3cccnc3)s2)cc1 | -22%
CC(=O)Oc1ccc2c(=O)c(N3C(=O)c4ccccc4C3=O)c(C)oc2c1C | -4%
COc1ccc(CNC(=O)CC2Oc3ccc(C)cc3NC2=O)cc1 (stereo unspecified) | -14%
CCCn1c(Nc2cccc(OC)c2)nc2ccccc21 | -2%
CCOc1ccccc1-c1noc(CSc2nnc(-c3ccncc3)n2-c2ccc(F)cc2)n1 | 4%
Cc1oc(-c2ccc(C(=O)Nc3ccc(F)cc3)cc2)nc1COc1ccccc1 | 20%
CCC(C(=O)OC(C)C)c1ccc2ccccc2c1 (stereo unspecified) | -11%
COc1ccc(-c2cc(C(=O)NCCCN3CCCC3=O)c3ccccc3n2)cc1 | 8%
Nc1cc2c(cc1C(=O)c1ccccc1)OCCO2 | 11%
CN(C)S(=O)(=O)c1ccc(C(=O)Nc2nc3ccccc3[nH]2)cc1 | -12%
COCCCN(C(=S)Nc1c(C)cc(C)cc1C)C(C)c1ccncc1 (stereo unspecified) | 11%
CCCN(CC(=O)Nc1cc(Cl)ccc1Cl)C(=O)c1ccc2n[nH]nc2c1 | 4%
CCOc1ccc(C(=O)Cn2c(=O)n3nc(CCn4nc(C)cc4C)nc3c3cc(OC)c(OC)cc32)cc1 | -3%

New compounds follow
Structure | VDR inhibitor
COc1ccc2cc3cc(C(=O)N4CC(C)CC(C)C4)oc3nc2c1 (stereo unspecified) | 4%
O=C(NC(=S)Nc1ccccn1)c1cncc(Br)c1 | -4%
Cc1cc(OCC(=O)Nc2sc3c(c2C(N)=O)CCCC3)ccc1C(C)C | -6%
CCOC(=O)Cn1c(=O)n(Cc2ccccc2)c(=O)c2cccnc21 | 21%
CN(Cc1cccnc1)Cc1cn[nH]c1-c1ccc(-c2ccccc2)cc1 | 8%
COc1cc(/C=C/C(=O)OCC(=O)NCc2ccco2)ccc1O | -14%
O=[N+]([O-])c1ccc(/C=N/Nc2nc(NCc3ccccc3)nc(N3CCOCC3)n2)cc1 | -22%
CCN(Cc1ccncc1)C(=O)CCc1nnc(CCc2ccccc2OC)o1 | -9%
O=C(COC(=O)/C=C/c1cccs1)Nc1ccc2ccccc2c1 | -17%
COC(=O)c1sc2nc(C)nc(SCC(=O)C(C)(C)C)c2c1C | 23%
Cc1ccc(-c2nnc(Nc3ccc(O)cc3)c3ccccc23)cc1S(=O)(=O)NCc1nc2ccccc2[nH]1 | 0%
Cc1sc2ncnc(N/N=C/c3cccc(O)c3)c2c1C | 8%
CC(C)Oc1ccc(S(=O)(=O)N2CCOCC2)cc1NC(=O)CN1C(=O)c2ccccc2C1=O | 69%[activator]
C(=N\Nc1nc2ccccc2s1)/c1ccccn1 | -11%
CCN1C(=O)[C@H]2[C@@H](c3ccc(C)cc3)N3C(=O)N(c4ccc(C)cc4)C(=O)[C@@]3(CC)[C@H]2C1=O | -13%
O=C1c2ccccc2-c2c1c1ccccc1c(=O)n2CCO | -6%
CN1CCN(c2ccc(NC(=O)CSc3ccccc3)cc2F)CC1 | 8%
COc1ccc(S(=O)(=O)N2CCOCC2)cc1NC(=O)Cc1c(F)cccc1Cl | -8%
CC(C)CN(C(=O)COC(=O)COc1ccc2c(c1)CCC2)c1c(N)n(Cc2ccccc2)c(=O)[nH]c1=O | 0%
CCc1nn2c(=O)c(S(=O)(=O)Nc3ccc(C(C)C)cc3)c(C)nc2s1 | -11%&-16%
CCn1c(SCC(=O)Nc2nonc2C)nnc1-c1ccco1 | -12%
COc1ccc(/C=N/NC(=O)c2nc(-c3ccccc3)n(-c3ccccc3)n2)cc1OC | -12%
COc1ccccc1/C=C/c1nc2ccccc2n1C(C)C | -7%
COc1ccc(Cl)cc1N(C)C(=O)Cn1cnc2sc(C)c(S(=O)(=O)N3CCN(c4ncccn4)CC3)c2c1=O | -19%
COc1cccc(-c2cc(C(F)(F)F)nc(-n3cccn3)n2)c1 | -11%

Of the compounds above, these have a cyano group:
Structure | VDR inhibitor
N#C/C(=C\c1ccncc1)c1ccccn1 | -1%
N#CCc1nnc2n1-c1ccccc1CCC2 | 2%

Next compounds follow:
Structure | VDR inhibitor
Cc1cc(C(=O)NCCN2CCCCC2C)n(-c2ccccc2)n1 (stereo unspecified) | -7%
Cc1cccc(/C=C/c2nc3ccccc3c(=O)n2Cc2ccccc2)c1 | -21%
Clc1ccccc1Cn1nnc2c(N3CCCC3)ncnc21 | -6%
COc1ccc(-c2cc(C(=O)Nc3cccnc3)no2)cc1OC | 13%&-1%
NC1=C([N+](=O)[O-])C(c2ccc(F)cc2)C2=C(CCCC2=O)O1 (stereo unspecified) | -15%
CCOc1ccccc1OCCCC(=O)N1CCN(S(=O)(=O)c2ccc(C)cc2C)CC1 | -7%
CC(C)(CO)CNC(=O)CCc1nnc(Cc2ccc(-c3ccccc3)cc2)o1 | 4%
C=CCNC(=S)N1CCN(c2ncc(C(F)(F)F)cc2Cl)CC1 | -10%
O=C(CSc1nc(O)cc(=O)[nH]1)Nc1ccc2c(c1)CCC2 | 8%
COC(=O)CCc1nc2ccccc2[nH]c1=O | -11%
Cc1ccc(-n2c(Cl)c(Cl)[nH]c(=O)c2=O)cc1 | -17%
CC#CCN1c2ccccc2[C@]23C[C@@H](C(=O)OC)N(C(=O)c4cc(C)oc4C)C2=NC(C(=O)OC)=C(C(=O)OC)[C@H]13 | -14%
Cc1ccc(S(=O)(=O)CC(=O)Nc2nccs2)cc1 | 0%
COc1ccc(NC(=O)CN2CCCCCC2)cc1OC | -10%
Clc1ccc(-n2nnnc2CN2CCCCC2)cc1Cl | -1%
COc1ccc([N+](=O)[O-])cc1-c1nc2ccccc2nc1-c1ccccc1 | -20%
CCN(CC(=O)NCc1ccc(Cl)cc1)C(=O)C(C)Sc1ccccc1 (stereo unspecified) | 6%
O=Cc1ccccc1OS(=O)(=O)c1ccccc1 | -14%
CC1=NN(c2ccccc2)C(=O)C1C(=O)c1cc([N+](=O)[O-])cc([N+](=O)[O-])c1 (stereo unspecified) | 4%
CC(=O)N1CCCc2cc(S(=O)(=O)N3CCN(c4ccc(F)cc4)CC3)ccc21 | -3%
COc1ccc(Cn2cc(F)c(=O)n(CCC(C)C)c2=O)cc1[N+](=O)[O-] | 9%
Cc1ccc(CN(Cc2cccnc2)C(=S)Nc2cccc(Cl)c2C)cc1 | 0%
NS(=O)(=O)c1ccc(N2N=C(c3ccccc3)CC2c2ccc(F)cc2)cc1 (stereo unspecified) | -11%
O=C(CSc1nnc(-c2ccc(C(F)(F)F)cn2)s1)c1ccccc1 | 10%
Cc1ccc(NC(=O)C(=O)NCC2CCCO2)cc1 (stereo unspecified) | 5%
COc1cc2cc(CCCOC(=O)CCCC(=O)O)oc(=O)c2cc1OC | -8%
